Screening results as filed in PubChem BioAssay.
Six1-Eya2 blk – inhibitors of human Six1/Eya2 interaction | AlphaScreen GST-Six1/His-Eya2 binding, biochemical; hits give low values; control for the full effect not named in the record | actives 0.56% (n = 360,000) | activity change, % (test concentration not listed) | AID 651725 | Q15475+O00167; in the data active = activity change below about -65%; inconclusive = about -30% to -65%; inactive = above about -30%; further: on the % scale 0 is the no-effect control and ±100 the full control effect; compound concentration not given in the record
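Homogeneous AlphaScreen proximity assay pairing GST-Six1 with His-tagged Eya2 (added as 5X mix: 250 nM and 500 nM) in 50 mM Tris pH 8.0, 300 mM NaCl, 1 mM TCEP. Glutathione donor and nickel acceptor beads; 1 h, 37 °C, dark.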
PINK1 expr mod – changes PINK1 expression; actives 0.2% (n = 410,000); PINK1 immunofluorescence, high-content cytometry, 24 h; Potency, µM (highest dose often 76.6 µM), without a hit: top-dose activation (PINK1 increase), actives largely listed as activators; active = well fitted activation curve with a large enough effect; inconclusive = small, poorly fitted or top-dose-only effect; inactive = flat fitted curve, though single readings scatter; cell line not stated here;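 further: potency means the concentration at half of the fitted maximal effect; % of control where 0% means no effect; nearly all actives have a fitted effect of over 65% in size; a mitochondrial uncoupler was the plate control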
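A stable cell line was treated with compounds at 5 concentrations for 24 hours, with CCCP as control. PINK1 levels and mitochondrial localization were measured by immunofluorescence with mitochondrial, cell and nuclear markers after fixation, read by laser-scanning cytometry.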
D2 potentiator – human D2 receptor positive allosteric modulation | P14416 | DiscoveRx D2 beta-arrestin cells, luminescence, 90 min; 100% = 57 uM dopamine signal | potentiation, % (test concentration not listed) | actives 0.23% (n = 360,000); active = potentiation of 50% or more; inconclusive = 30% to 50%; inactive = 30% or less;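 further: compound concentration not given in the record; tested on top of an EC20 dose of dopamine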
Target sequence (P14416 whole entry, looked up): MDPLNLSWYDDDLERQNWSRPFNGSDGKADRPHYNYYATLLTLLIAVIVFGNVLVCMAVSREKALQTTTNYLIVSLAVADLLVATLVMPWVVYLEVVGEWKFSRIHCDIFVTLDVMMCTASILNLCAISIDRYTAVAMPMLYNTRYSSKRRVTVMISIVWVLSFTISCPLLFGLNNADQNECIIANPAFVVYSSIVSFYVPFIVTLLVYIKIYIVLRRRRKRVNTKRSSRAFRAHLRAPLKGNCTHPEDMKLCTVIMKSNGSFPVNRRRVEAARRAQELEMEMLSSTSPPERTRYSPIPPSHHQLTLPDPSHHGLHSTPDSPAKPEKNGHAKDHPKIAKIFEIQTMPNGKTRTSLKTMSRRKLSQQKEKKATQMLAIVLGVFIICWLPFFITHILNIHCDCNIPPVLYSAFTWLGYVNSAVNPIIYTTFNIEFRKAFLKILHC
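PathHunter beta-arrestin assay in DiscoveRx D2 cells. Compounds were added with an EC20 of dopamine (50 nM final) for 90 min at 37 deg C. Luminescence was read 1 h after detection reagent, with 57 uM dopamine as the EC100 control.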
D2 ag – agonists of human D2 dopamine receptor (beta-arrestin) | P14416 | DiscoveRx PathHunter D2 beta-arrestin, luminescence, 90 min; 100% = 57 uM dopamine signal | activation, % (concentration not given with the values) | actives 0.084% (n = 360,000) | AID 624465; in the data active = activation above about 40%; inconclusive = about 15% to 40%; inactive = below about 15%; further: compound concentration not given in the record; the text of the record calls up to 30% inactive
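Agonist mode: compounds alone added to overnight-plated D2 PathHunter cells for 90 min at 37 C, with 57 uM final dopamine (EC100) defining full response. Beta-arrestin recruitment detected by chemiluminescent reagent, read after 1 h at ambient temperature.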
TRPML1 blocker – human mucolipin-1 channel inhibition; Q9GZU1; TRPML1-inducible cells, Ca2+ dye fluorescence, FDSS; hits give low values; inhibition of EC80 agonist-evoked calcium signal; activity change, negative = inhibition, % (no concentration beside the values); actives 0.02% (n = 390,000); AID 624415; in the data active means activity change below about -50%; inconclusive means about -30% to -50%; inactive means above about -30%;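 further: stimulus is agonist 54-4 at its EC80 concentration; on the % scale 0 is the no-effect control and ±100 the full control effect; compound concentration not given in the record; the text of the record puts the active cut at -80%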
Target sequence (Q9GZU1 whole entry, looked up): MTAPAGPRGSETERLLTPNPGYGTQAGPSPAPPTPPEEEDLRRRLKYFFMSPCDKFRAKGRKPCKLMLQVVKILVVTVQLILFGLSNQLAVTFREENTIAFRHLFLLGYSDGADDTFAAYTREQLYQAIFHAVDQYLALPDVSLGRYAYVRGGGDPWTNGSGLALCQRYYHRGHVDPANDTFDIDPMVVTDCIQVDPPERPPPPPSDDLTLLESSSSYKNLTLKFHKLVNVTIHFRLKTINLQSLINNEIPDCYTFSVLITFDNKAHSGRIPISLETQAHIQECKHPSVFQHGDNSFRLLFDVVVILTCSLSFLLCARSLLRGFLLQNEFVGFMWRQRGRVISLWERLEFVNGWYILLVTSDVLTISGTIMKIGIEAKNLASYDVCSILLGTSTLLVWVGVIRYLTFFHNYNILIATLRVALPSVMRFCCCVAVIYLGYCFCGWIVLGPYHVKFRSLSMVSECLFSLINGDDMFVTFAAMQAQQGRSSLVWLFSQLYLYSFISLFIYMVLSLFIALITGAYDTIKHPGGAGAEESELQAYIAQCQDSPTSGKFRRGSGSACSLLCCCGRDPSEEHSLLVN
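Tet-induced TRPML1-DL cells loaded with Ca8 no-wash calcium dye were read kinetically on FDSS. Compound addition was followed by EC80 agonist 54-4 (4 uM final); inhibition was read over 110 s.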
TRPML1 agonist – human mucolipin-1 channel agonism | actives 0.12% (n = 410,000) | TRPML1-expressing cells, Ca2+ dye fluorescence, FDSS; host cell line not named in the record; reference of the full effect not given here | Q9GZU1 | AID 624414 | activation, % (no concentration beside the values); in the data active = activation above about 50%; inconclusive = about 30% to 50%; inactive = below about 30%; further: 0% is about no effect; the text of the record puts the active cut at 80%
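Cells: TRPML1-DL, 1X Tet inducer, ~16 h at 37 degrees C/5% CO2. Dye: ABD Ca8 no-wash + quencher, 45-90 min RT. Read: 10 s baseline, compound add, 110 s agonist phase; 54-4 EC80 (4uM final), 110 s antagonist phase.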
The depositor's hits bear a star; ? = inconclusive; nt = no result given; & = joins results of further samples; [ ] = dose if it differs, or a comment.

No.	Structure	Six1-Eya2 blk	PINK1 expr mod	D2 potentiator	D2 ag	TRPML1 blocker	TRPML1 agonist
1	COc1ccc(C)cc1S(=O)(=O)NCCC1=CCCCC1	3	1.5%[38.3 µM]	-17	-3.0	-4	0.7
2	C=CCn1c(C(CCCC)CC(C)O)n[nH]c1=S (configuration not stated)	6	3.4%	-8	2.7	-2	0.1
3	Cc1ccc(NC(=O)CO/N=C(\N)c2nonc2N)cc1	1	0.2%[38.3 µM]	-13	-3.8	-5	0.0
4	CCOC(=O)CC(=O)CSc1nc2ccsc2c(=O)n1Cc1ccccc1	nt	0.8%	nt	nt	-17	1.2
5	CC(=O)N1CCN(c2ccc(NC(=O)c3ccc(N4CCCC4)c([N+](=O)[O-])c3)cc2Cl)CC1	-17	16%[38.3 µM]	-19	-1.8	-8	-0.5
6	C/C(N)=C(/C#N)C(=O)CSc1nc(C2CCCCC2)n(-c2ccccc2)n1	2&0	0.0%&-2.3%	-1&-10	2.7&0.2	20&4	-1.1&2.4
7	Cc1cccc(NC(=O)COC(=O)c2c(-c3ccccc3)noc2C)c1	-8	3.8%	-11	0.4	-6	-1.2
8	Cc1nn(C(=O)c2ccccc2F)c(C)c1S(=O)(=O)N1CCOCC1	nt	1.2%	nt	nt	22	0.4
9	Cc1nn(C)c(Oc2cccc(Cl)c2)c1C(=O)Nc1ccc(F)cc1F	-2	1.7%	15	-5.9	11	-1.4
10	CCC(=O)N1CCc2cc(S(=O)(=O)NCCc3ccc(S(N)(=O)=O)cc3)ccc21	1	0.8%	-7	3.2	8	0.0
11	COc1ccc(C2=NN(C(=O)COC(=O)c3ccc(S(C)(=O)=O)c([N+](=O)[O-])c3)C(c3ccco3)C2)cc1 (configuration not stated)	-17	-5.5%	-20	2.0	-14	1.0
12	Fc1ccc(N2CCN(/C=C/c3nnnn3-c3ccccc3)CC2)cc1	-23	-0.1%	-18	-1.6	-5	0.3
13	Cc1nnc(SCCn2c(N3CC(C)CC(C)C3)nc3c2c(=O)[nH]c(=O)n3C)s1 (configuration not stated)	-3	-2.3%[38.3 µM]	-7	-0.1	2	3.3
14	Cc1nc2sccn2c(=O)c1S(=O)(=O)NCC(C)c1ccccc1 (configuration not stated)	-1	-0.3%	-6	-6.0	-5	-0.5
15	CCOC(=O)C1=CNS(=O)(=O)NC1c1ccc(C(=O)OC)cc1 (configuration not stated)	-10	0.3%	-3	-0.3	-6	0.4
16	Cc1cccc(C)c1N1CCN(C(=O)N2CCOCC2)CC1	-1	1.4%	-14	0.1	-4	-0.4
17	CCCCCn1c(=O)[nH]c2cc(C(=O)NCCCN(C)Cc3ccccc3)ccc2c1=O	-1	3.5%	-22	-3.5	9	1.0
18	O=C(CN1CCN(S(=O)(=O)c2ccccc2C(F)(F)F)CC1)NCc1cccs1	9	2.5%	2	-5.0	-2	0.7
19	O=C(Nc1cccc(-c2cn3cccnc3n2)c1)c1cc(Br)ccc1Cl	nt	0.8%	nt	nt	4	-0.5
20	CN(CC(=O)Nc1cccc(S(=O)(=O)N2CCCC2)c1)CC(=O)Nc1ccc(Cl)c(C(F)(F)F)c1	1	29%	9	6.8	-12	3.4
21	Cc1ccc2c(c1)C(CCN)C(=O)N2Cc1ccccc1 (configuration not stated)	-1	-0.3%	-75	-14	23	0.1
22	c1ccc2c(-c3cccc4nccn34)cncc2c1	6	-0.1%	-8	-4.3	nt	-0.1
23	CCN(CC)CCn1c(=N)n(CC(O)c2ccco2)c2ccccc21 (configuration not stated)	3	-0.9%	-8	2.6	-8	0.2
24	CCO[C@@H]1OC(C(N)=O)=C[C@H](C(C)(C)C)[C@H]1CCCO	5	-0.8%	-15	-0.1	18	-0.8
25	O=C(CCN1C(=O)c2ccccc2C1=O)N1CCN(C2c3ccccc3-c3ccccc32)CC1	-1	0.7%[38.3 µM]	3	-1.3	9	-0.1
26	Cc1ccc(CN2CC(=O)N3[C@H]4c5cc(C)ccc5OC[C@@H]4[C@H](c4ccccc4)[C@]3(C)C2=O)cc1	-14	1.0%	-5	-2.5	-20	2.6
27	O=C(Cc1cccc(NC(=O)C2CCCN(C(=O)C3CCCC3)C2)c1)Nc1cccc(C(=O)N2CCOCC2)c1 (configuration not stated)	-8	-0.6%	nt	1.4	18	-0.4
28	CC(=O)CC(C)(C)S(=O)(=O)c1ccc(NC(C)=O)cc1	9	0.4%[38.3 µM]	-6	-2.1	-6	-0.2
29	CC1(C)CC(=O)C2=C(C1)Nc1ccccc1NC2c1ccc([N+](=O)[O-])cc1 (configuration not stated)	-5	0.7%	-10	-7.6	-13	-0.7
30	COc1ccc(NC(=O)CSc2nc3cccnc3n2C)cc1	13	1.4%	8	3.8	-2	0.5
31	Cc1cccc(N2C(=O)N3[C@H](c4ccc(F)cc4)[C@@H]4C(=O)N(C5CCCCC5)C(=O)[C@@H]4[C@]3(Cc3ccccc3)C2=O)c1	-10	-0.5%	-12	-1.6	67	0.1
32	O=C(NCCN1CCOCC1)c1ccc2c(c1)N(Cc1ccccc1)CCS2	0	-0.1%	-12	-3.4	-2	1.3
33	CCN(CC)C(=O)[C@H]1C[C@H](CC(=O)NCCC2=CCCCC2)C(=O)N2CCc3c([nH]c4ccc(Cl)cc34)[C@]12C	-6	0.2%	-9	-2.5	2	-0.4
34	CN1CCN(c2ccc(S(=O)(=O)N3CCOCC3)cc2NC(=O)C2CCCCC2)CC1	5	-0.1%	1	-1.5	-6	-0.2
35	Cc1sc2ncnc(NCC(O)c3ccccc3)c2c1C (configuration not stated)	-11	-0.9%	0	-1.4	4	-1.2
36	COc1ccc(-c2nn(-c3ccccc3)cc2/C=C(\CC(=O)O)c2nc3ccccc3s2)cc1OC	-11	-0.9%	1	2.7	13	0.8
37	CC1C(=O)C(C)C(c2ccc(Br)cc2)NC1c1ccc(Br)cc1 (configuration not stated)	26	?	-5	-5.8	-5	1.6
38	Cc1cc(NC(=O)c2ccc(S(=O)(=O)N3CCc4ccccc43)cc2)no1	0	5.6%	0	-2.4	4	3.6
39	CCOc1cccc(-c2c(C(=O)N/N=C/c3ccc(Br)cc3)nnn2-c2nonc2N)c1	-16	4.3%	-9	2.5	37	0.9
40	C#CCOCCOCCOCCNc1nc(N2CCOCC2)nc(N2CCN(C(=O)[C@H](CCCCN)n3cc(CCC(=O)O)nn3)CC2)n1	7	-0.3%	-5	-2.4	-10	-0.5
41	CN(C)CCNC(=O)Nc1ccc(Cl)c(Cl)c1	1	3.8%[38.3 µM]	-20	-0.4	7	0.1
42	CCC(C)(C)NC(=O)C(c1ccccn1)N(C(=O)c1csnn1)C1CCCCC1 (configuration not stated)	5	-1.8%	-9	0.8	5	1.9
43	Fc1cccc(NC(=S)Nc2ccc(Br)cc2)c1	7	-1.6%	7	-0.6	-8	-0.2
44	C[C@@H]1CN([C@@H](C)CO)C(=O)c2cc(Br)cnc2O[C@H]1CN(C)C(=O)Nc1ccc2c(c1)OCO2	-2	2.3%	nt	3.3	nt	nt
45	NC(=O)c1ccc(OCC(F)(F)C(F)(F)C(F)(F)C(F)(F)C(F)(F)C(F)F)cc1	-1	1.1%[38.3 µM]	-7	0.3	-13	0.3
46	Cc1noc(C)c1NC(=O)Nc1ccc2c(c1)CC(=O)N([C@H](C)CO)C[C@@H](C)[C@H](CN(C)CC1CCCCC1)O2	5	-0.4%	-11	-1.2	31	0.0
47	CCC1=NN2C(=N)/C(=C\c3cccn3-c3ccc(Br)cc3)C(=O)N=C2S1	-1	1.1%	-7	-1.1	-4	0.8
48	CC1(C)SC(=S)N(/N=C/c2cccnc2)C1N(O)C(=O)NC1CCCCC1 (configuration not stated)	0	-3.0%	-3	-2.5	-4	-0.4
49	COc1ccc(/C=C2/CCc3ccccc3C2=O)cc1CN1CCOCC1	1	-1.0%	-24	-2.0	-13	0.1
50	O=C(CN1CCN(c2ccc(O)cc2)CC1)Nc1cc(S(=O)(=O)N2CCOCC2)ccc1Cl	-22	0.8%	?	?	-27	0.5
51	CCOC(=O)c1cc(-c2ccc(/C=C3/C(=O)N(c4ccc(C(=O)O)cc4)N=C3C)o2)ccc1Cl	22	-0.2%	0	0.6	-7	0.0
52	c1ccc2c(c1)OCC(c1csc3ncnc(N4CCCC4)c13)O2 (configuration not stated)	-14	1.4%	-18	1.1	11	0.6
53	COc1ccc(-c2nn(CCC(=O)O)cc2CCC(=O)O)cc1	-1	4.1%	0	2.1	3	-0.2
54	COc1ccc(CCNC(=O)CSC(=O)c2ccccc2)cc1OC	1	1.8%	-2	-0.6	-4	0.5
55	Cc1cc(/C=C2\SC(=S)NC2=O)c(C)n1-c1ccc(O)cc1	-21	0.7%	1	3.0	nt	nt
56	CCN(CC)CCNC(=O)C1(O)c2cc(Br)ccc2NC(=O)N1c1cccc(OC)c1 (configuration not stated)	-1	-2.2%	-4	-2.0	10	1.0
57	COc1ccc(CCN(C(=O)C(F)(F)F)C(C(=O)NC2CCCC2)c2cccs2)cc1OC (configuration not stated)	-3	nt	-5	-2.8	-7	0.1
58	Cc1cc(NS(=O)(=O)c2ccc(NC(=O)C(C)Oc3ccccc3Cl)cc2)no1 (configuration not stated)	4	2.4%	18	-2.4	19	-0.6
59	CCOc1ccc(NC(=O)CN(c2ccccc2OCC)S(=O)(=O)c2ccccc2)cc1	nt	6.3%	nt	nt	20	-0.2
60	COc1ccc(C(C)(O)c2nc(-c3ccc(OC)nc3)cs2)cc1 (configuration not stated)	8	0.7%	-9	1.1	nt	-0.6
61	CCN1CCN(CCCNC(=O)c2cnn(-c3ccc(C)cc3C)c2C2CCN(C(=O)OC(C)(C)C)CC2)CC1	nt	0.0%	nt	nt	-2	4.7
62	O=C(O)CCC(=O)Nc1ccccc1C(=O)NCc1ccccc1	-1	0.2%	-10	-1.9	1	-0.3

Compound profiles, from the list above:
`CCOC(=O)CC(=O)CSc1nc2ccsc2c(=O)n1Cc1ccccc1` is listed as Six1-Eya2 blk = nt; PINK1 expr mod = 0.8%; D2 potentiator = nt; D2 ag = nt; TRPML1 blocker = -17; TRPML1 agonist = 1.2
`CCOC(=O)C1=CNS(=O)(=O)NC1c1ccc(C(=O)OC)cc1` (configuration not stated) is listed as Six1-Eya2 blk = -10; PINK1 expr mod = 0.3%; D2 potentiator = -3; D2 ag = -0.3; TRPML1 blocker = -6; TRPML1 agonist = 0.4
`CC(=O)N1CCN(c2ccc(NC(=O)c3ccc(N4CCCC4)c([N+](=O)[O-])c3)cc2Cl)CC1` is listed as Six1-Eya2 blk = -17; PINK1 expr mod = 16%[38.3 µM]; D2 potentiator = -19; D2 ag = -1.8; TRPML1 blocker = -8; TRPML1 agonist = -0.5
